Screening results from PubChem BioAssay.
StopGo reporter – FMDV 2A StopGo reporter, luciferase signal | 410,000 tested, 1.2% active | Potency, µM (top dose mostly 57.9 µM), without a hit: top-dose signal change, negative = less light | human cells with a luciferase reporter of 2A StopGo recoding; control for the full effect not named in the record; active = well fitted falling curve with a large enough effect; inconclusive = small, poorly fitted or top-dose-only effect; inactive = no such curve, though single readings can be large or run the other way; tested in HEK293T cells; further: on the % scale 0 is the no-effect control and ±100 the full control effect; nearly all actives have a fitted effect of over 45% in size; luciferase light after 4 h
SARS PLP yeast – SARS-CoV PLP inhibition in yeast; S. cerevisiae expressing SARS-CoV PLpro, growth rescue; control for the full effect not named in the record; Potency, µM (top dose mostly 32.9 µM), for the others: at the top dose activity, positive = growth rescue; 330,000 tested, 0.19% active; active means well fitted rising curve with a large enough effect; inconclusive means small, poorly fitted or top-dose-only effect; inactive means no such curve, though single readings can be large or run the other way; further: 0% is about no effect; nearly all actives have a fitted effect of over 55% in size; growth read by luminescence after 48 h
Cruzain Triton – blocks cruzain activity in presence of Triton detergent. purified cruzain, Z-FR-AMC fluorescence, 0.01% Triton. 200,000 tested, 0.43% active. P25779. Potency, µM, for the others: max response, negative = inhibition, usual class: inhibitors;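 further: plate controls were neutral wells for no effect and buffer without enzyme for full effect; nearly all actives have a fitted effect of over 40% in size; top concentration of the series not given in the record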
Target sequence (P25779 123-467 limits assumed): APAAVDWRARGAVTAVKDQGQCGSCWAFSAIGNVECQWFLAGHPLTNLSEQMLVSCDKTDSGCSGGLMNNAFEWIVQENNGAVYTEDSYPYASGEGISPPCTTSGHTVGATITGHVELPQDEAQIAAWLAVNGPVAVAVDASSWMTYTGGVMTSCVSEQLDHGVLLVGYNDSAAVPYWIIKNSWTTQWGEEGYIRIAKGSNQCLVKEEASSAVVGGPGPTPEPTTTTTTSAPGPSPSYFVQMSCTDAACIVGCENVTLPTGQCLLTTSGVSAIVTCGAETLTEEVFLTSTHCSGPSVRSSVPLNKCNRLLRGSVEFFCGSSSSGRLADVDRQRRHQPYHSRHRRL
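Sodium acetate buffer (100 mM, pH 5.5) containing 5 mM DTT and 0.01% Triton X-100 hosted 1.5 nM cruzain and test compound for 15 min at room temperature. Cleavage of 2 uM Z-FR-AMC was then tracked by fluorescence.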
Cruzain noTriton – blocks cruzain activity in detergent-free assay; Potency, µM, without a hit: max response, negative = inhibition, most hits filed as inhibitors; 200,000 tested, 2.3% active; purified cruzain, Z-FR-AMC fluorescence, no detergent;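 further: plate controls were enzyme without inhibitor for no effect and buffer without enzyme for full effect; nearly all actives have a fitted effect of over 40% in size; top concentration of the series not given in the record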
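Purified cruzain at 1.5 nM, pre-incubated 15 min with compound at room temperature in 100 mM sodium acetate pH 5.5, 5 mM DTT, 0.00005% Triton X-100. Reaction started with 2 uM Z-FR-AMC; AMC fluorescence increase over 60 s gives rate.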
Marburg entry inh – inhibitors of Marburg virus binding or cell entry; 300,000 tested, 1.8% active; Marburg virus pseudotyped entry inhibition, cell reporter; control for the full effect not named in the record; about a third of the inactives were read at about 46 µM; Potency, µM (doses to about 37.8 µM), for the others: at the highest dose activity change, negative = inhibition, most hits filed as inhibitors; active = well fitted inhibition curve with a large enough effect; inconclusive = small, poorly fitted or top-dose-only effect, or effect the other way; inactive = flat fitted curve, though single readings scatter; tested in HEK293 cells; about a fifth of its hits are not listed in these tables; further: on the % scale 0 is the no-effect control and ±100 the full control effect; luciferase read-out
Lassa entry inh – inhibitors of Lassa virus binding or cell entry; Lassa virus pseudotype entry inhibition, cell reporter; control for the full effect not named in the record; 300,000 tested, 1.2% active; AID 540256; Potency, µM (doses to about 37.9 µM), inactives show at the highest dose activity change, negative = inhibition, actives largely listed as inhibitors; active means well fitted inhibition curve with a large enough effect; inconclusive means small, poorly fitted or top-dose-only effect, or effect the other way; inactive means flat fitted curve, though single readings scatter; tested in HEK293 cells; further: on the % scale 0 is the no-effect control and ±100 the full control effect; nearly all actives have a fitted effect of over 50% in size; luciferase read-out
RE007 growth inh – less growth of the S. pombe RE007 Vpr strain. 360,000 tested, 0.21% active. AID 651644. S. pombe RE007 Vpr strain, BacTiter-Glo ATP luminescence, 24 h; control for the full effect not named in the record. Potency, µM (series often up to 92.2 µM), inactives show at the top dose activity change, negative = less growth; active = well fitted falling curve with a large enough effect; inconclusive = small, poorly fitted or top-dose-only effect; inactive = no such curve, though single readings can be large or run the other way;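 further: on the % scale 0 is the no-effect control and ±100 the full control effect; nearly all actives have a fitted effect of over 50% in size; the assay follows cell death caused by Vpr and the record does not say whether a fall means rescue or toxicity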
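Fission yeast RE007 carrying one integrated HIV-1 vpr copy, seeded at OD 0.01 in PMG+AL medium with 23 nL pinned compound. Grown 24 h at 30 degrees; viability read by BacTiter-Glo luminescence after 5 min.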
NS1 function inh – inhibitors of influenza NS1 protein function; S. cerevisiae slowed by influenza A NS1, growth recovery by OD600; Potency, µM (titrated, usually from 46.1 µM), without a hit: top-dose activity, positive = more growth; 270,000 tested, 0.4% active; AID 2326; active means well fitted rising curve with a large enough effect; inconclusive means small, poorly fitted or top-dose-only effect; inactive means no such curve, though single readings can be large or run the other way; further: nearly all actives have a fitted effect of over 50% in size
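In this qHTS, NS1 from influenza A is expressed in budding yeast, where it slows growth. Cells are switched from glucose to 2% galactose medium (pH 6.0, -URA), treated with compound, and growth recovery is read at OD600.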
* hit, by the source's call; ? = inconclusive; . = not tested or not shown; [ ] = dose if it differs, or a comment. Unless noted, the call rests on the fitted dose curve; in most records, active means well fitted curve in the direction sought with a large enough effect; inconclusive means small, poorly fitted or top-dose-only effect, or another doubt; inactive means no such curve, though single readings can be large; an effect the other way counts as inactive or inconclusive. Potency means the concentration at half of the fitted maximal effect.

SMILES	StopGo reporter	SARS PLP yeast	Cruzain Triton	Cruzain noTriton	Marburg entry inh	Lassa entry inh	RE007 growth inh	NS1 function inh
c1ccc2c(c1)N1CCN=C1N2CCN1CCCCC1	-18%	7%	0.5%	0%	?	-2%	-12%	-4%
CCCCC(=O)Nc1ccc2c(c1)nc(CCN1CCOCC1)n2C	-17%	3%	-2.1%	-10%	0%	-1%	-9%	4%
CCOc1ccc(-c2ccc(CO)o2)cc1N	28%	.	-4.0%	-13%	.	-30%[46.1 µM]	.	.
CC1(C)CC(=O)c2c(nn(-c3ccccc3)c2N)C1	.	-10%	5.1%	3%	2%	15%	1%	0%
COc1ccc(N(C(=O)/C=C/c2ccccc2)C2=CC3CCC(C2)N3C)cc1 (stereo not drawn)	-16%	0%	.	.	?	?	6%	-2%
COc1ccc(N=Cc2nc(-c3ccccc3)oc2OC(C)=O)cc1	-22%	0%	.	.	.	.	0%	-3%
CC(=NCCCN1CCOCC1)c1c(O)n(Cc2ccccc2)c(=O)[nH]c1=O	4%	8%	1.2%	-3%	17%	0%	-16%	-3%
Cc1ccc(Cn2ncc3c(NCCCN(C)C)ncnc32)cc1	-20%	0%	.	.	.	.	12%	0%
O=S(=O)(/C=C/C=C/S(=O)(=O)c1ccccc1)c1ccccc1	7.9µM*	.	.	.	?	1µM*	3%	.
Cc1cc(=O)n2nc(N3CCC(C(=O)NCc4cccc(Cl)c4)CC3)sc2n1	1%	-2%	.	.	.	.	-8%	11%
CNC(=O)COc1ccc(Nc2nnc(-c3ccc(C)c(S(=O)(=O)NC(C)(C)C)c3)c3ccccc23)cc1	27%	.	-8.2%	?	.	?	.	.
Cc1ccc(C)c(N2CCN(C(=O)c3ccc4nc(N5CCOCC5)sc4c3)CC2)c1	0%	-3%	.	.	.	.	21%	-1%
Cc1nc2cc3c(cc2s1)OCO3	10%	0%	.	.	23%	4%	-3%	-4%
Cc1cc(N(C)Cc2ccccc2)n2nc(-c3ccc(C(C)(C)C)cc3)nc2n1	-19%	.	-1.3%	-5%	20%[46.1 µM]	11%[46.1 µM]	.	.
CCOc1ccc(NC(=O)c2c(NCc3cc(OC)c(OC)cc3OC)sc3c2CCCC3)cc1	-2%	.	-8.0%	?	.	10%[46.1 µM]	.	.
COC(=O)c1ccc(-n2cnc(Cl)n2)c(F)c1	6%	5%	7.8%	4%	2%	5%	-14%	-4%
CSCCOC(=O)C1=C(C)NC(=O)CC1c1ccccc1Cl (stereo not drawn)	-22%	5%	-2.7%	-9%	?	-26%	6%	-17%
O=C(c1ccco1)N1N=C(c2cccs2)CC1c1ccc(F)cc1 (stereo not drawn)	-28%	-15%	-14%	-7%	-4%	0%	-7%[3.69 µM]	-4%
CC12CCC(c3n[nH]c(=S)nc31)C2(C)C (stereo not drawn)	-3%	-4%	-0.8%	18%	-5%	-3%	26%	10%
COc1ccccc1N1CC(C(=O)Nc2nnc(SCC(=O)NCC3CCCO3)s2)CC1=O (stereo not drawn)	-7%	-2%	.	.	?	3%	1%	5%
Cc1sc(NC(=O)c2ccccc2)c(C#N)c1-c1ccccc1	18%	10%	-7.8%	7%	-36%	?	0%	12%
COc1cccc(OP(=O)(Nc2ccccc2)Oc2cccc(OC)c2)c1	-9%	3%	.	.	.	.	17%	-17%
O=C(Cc1ccccc1)NCC(=O)Nc1cccc(Cl)c1	21%	-14%	.	.	?	-12%	13%	6%
COc1ccc(OCC(=O)NCC(c2cccs2)N2CCOCC2)cc1 (stereo not drawn)	-23%	-9%	.	.	-12%	2%	?	.
O=C(O)CCCn1nc(C(F)(F)F)c2c1CCCCC2	-9%	8%	1.8%	-2%	-15%	20%	11%	-4%

2 entries from above, with values under each structure:
The line under a structure holds: StopGo reporter, SARS PLP yeast, Cruzain Triton, Cruzain noTriton, Marburg entry inh, Lassa entry inh, RE007 growth inh, NS1 function inh
- CCOc1ccc(-c2ccc(CO)o2)cc1N
 : 28%, ., -4.0%, -13%, ., -30%[46.1 µM], ., .
- CC1(C)CC(=O)c2c(nn(-c3ccccc3)c2N)C1
 : ., -10%, 5.1%, 3%, 2%, 15%, 1%, 0%

Additional structures.
SMILES	StopGo reporter	SARS PLP yeast	Cruzain Triton	Cruzain noTriton	Marburg entry inh	Lassa entry inh	RE007 growth inh	NS1 function inh
O=C1C2C3C=CC(C3)C2C(=O)N1c1ccc(S(=O)(=O)Nc2nccs2)cc1 (stereo not drawn)	5%	1%	.	.	5%[46.1 µM]	-7%	11%	-1%
CS(=O)(=O)N1CCN(c2cnn(-c3ccccc3)c(=O)c2Cl)CC1	53%[activator]	0%	.	.	0%	12%	2%	0%
Cn1ncc(Br)c1C(=O)NC1CCCC1	-27%	-1%	.	.	.	.	23%	2%
CC(=O)NC(Cc1ccccc1F)C(=O)NC1CCN(C(=O)c2cnccn2)CC1 (stereo not drawn)	12%	-2%	2.3%	-11%	15%	2%	0%	2%
O=C(NCCCN1CCCC1=O)Nc1ccc([N+](=O)[O-])cc1	17%	1%	.	.	.	.	8%	-1%
CCOc1cc(/C=N/NC(=O)c2cccs2)ccc1OC(=O)N1CCOCC1	-25%	-6%	-6.4%	5%	-1%	?	1%	-11%
N#Cc1c(C(F)(F)F)cc(-c2cccs2)nc1SCC(=O)Nc1cccc(C(F)(F)F)c1	-8%	.	-0.3%	9%	?	-2%[46.1 µM]	.	.
CCC(C)c1ccc(-n2c(=O)c3ccccc3n3c(=S)[nH]nc23)cc1 (stereo not drawn)	10%	0%	.	.	?	14%[46.1 µM]	-16%	14%
Cc1ccc(CNC(=O)c2cnc(N3CCCC3)nc2C)cc1	-8%	.	0.0%	-8%	.	13%[46.1 µM]	.	.
CCCN1CCN(C(=O)c2cc(COc3ccc(F)c(F)c3)on2)CC1	28%	-7%	.	.	.	.	-6%	6%
Cc1c(Cl)c(C(F)(F)F)nn1CC(=O)NN	-13%	-16%	.	.	9%[46.1 µM]	0%[46.1 µM]	-6%	.
O=C(Nc1cnn(Cc2c(Cl)cccc2Cl)c1)C(c1ccccc1)c1ccccc1	-20%	0%	-6.9%	?	?	?	-3%	7%
Cc1ccc(N(C)C(=O)C2CCCN2S(=O)(=O)c2ccc3c(c2)n(C)c(=O)c(=O)n3C)cc1 (stereo not drawn)	0%	0%	.	.	.	.	-2%	-4%
O=C(CSc1ccccn1)N1CCCC(Nc2ccc(F)c(F)c2)C1 (stereo not drawn)	-18%	0%	.	.	21%	?	-2%	2%
Cc1cc(C(F)F)n2nc(C(=O)Nc3cc(Cl)ccc3C)nc2n1	-13%	.	-2.0%	5%	-3%[46.1 µM]	6%[46.1 µM]	.	.
C(=N\N1CCN(Cc2ccccc2)CC1)/c1cccs1	66%[activator]	0%	2.8%	-7%	-4%	20%	-6%	-10%
Cc1cc(C)n2nc(C(=O)OCC(=O)N(CC(C)C)CC(C)C)nc2n1	1%	10%	.	.	2%[46.1 µM]	27%	-1%	8%
C#CC[N+](C)(C)CC#Cc1ccccc1	-6%	0%	.	.	6%[46.1 µM]	9%	-2%	3%
Cc1ccccc1-n1c(=O)n(Cc2ccco2)c(=O)c2[nH]cnc21	-18%	-1%	.	.	2%	.	6%	1%
COc1cc(NC(=O)c2ccc([N+](=O)[O-])o2)ccc1NC(=O)c1ccco1	6%	-4%	.	.	.	.	15%	-15%
CCc1sc(-c2c(C#N)c(N)nc3c2CCCCCC3)cc1[N+](=O)[O-]	-22%	1%	-2.5%	-7%	-26%	-25%	7%	16%
O=C(O)CSc1nc(-c2ccccc2)c(-c2ccccc2)[nH]1	-14%	0%	.	.	.	.	9%	3%
CCN(Cc1ccccc1)S(=O)(=O)c1ccc(C(=O)Nc2nnc(-c3ccccc3OC)o2)cc1	-23%	3%	1.7%	?	?	?	-20%	-15%
CC(=O)c1ccc2c(c1)OCCOCCOc1ccccc1OCCOCCO2	0%	0%	.	.	?	-22%[46.1 µM]	10%	-33%
O=C(CCN1CCCCO1)N1CCCC(N2CCN(c3ccc(F)cc3)CC2)C1 (stereo not drawn)	-3%	3%	.	.	.	.	2%	7%
SMILES	StopGo reporter	SARS PLP yeast	Cruzain Triton	Cruzain noTriton	Marburg entry inh	Lassa entry inh	RE007 growth inh	NS1 function inh
COc1ccc(Cn2nnnc2CN2CCC(O)(c3ccc(F)cc3)CC2)cc1	-18%	1%	.	.	?	-28%	2%	5%
COc1ccc(CCNC(=O)c2ccc(NS(=O)(=O)c3c(C)noc3C)cc2)cc1OC	2%	1%	1.3%	7%	-8%	-9%	1%	-10%
O=C(NCC(=O)N(Cc1ccccc1)C(C(=O)NC1CCCC1)c1ccco1)c1ccco1 (stereo not drawn)	-1%	4%	-2.6%	4%	8%[46.1 µM]	?	13%	-9%
COCc1cc(C)n(CC(=O)NC(C)c2ccccc2)c(=O)c1C#N (stereo not drawn)	11%	5%	-3.2%	-14%	?	8%	17%	0%
CCOc1ccc(C(=O)Nc2nnc(SCc3cc(=O)n4ccccc4n3)s2)cc1	32%[activator]	.	2.5%	3%	.	3%[46.1 µM]	.	.
CCOC(=O)C(C(=O)Nc1ccccn1)C1CCCCC1 (stereo not drawn)	-2%	3%	-3.3%	7%	8%	2%	10%	-18%
Cc1cc(=O)oc2cc(OCC(=O)Nc3nnc(CC(C)C)s3)ccc12	-20%	1%	-1.6%	4%	7%[46.1 µM]	2%	-13%	-5%
CCCCN1CCc2[nH]c(=S)[nH]c(=O)c2C1	-18%	-1%	2.6%	2%	?	8%	20%	11%
CCCn1nc(C(=O)Nc2cccc(C(=O)OC)c2)c2ccccc2c1=O	-28%	-1%	2.7%	?	?	?	25%	-47%
Cc1ccc(-c2nnn(CC(=O)N(CCO)C(C(=O)NC3CCCCC3)c3ccncc3)n2)o1 (stereo not drawn)	-8%	4%	.	.	-4%[46.1 µM]	8%	0%	.
CCC(CC)C(=O)Nc1cc(C)cc(C)c1	1%	0%	2.2%	-9%	?	25%	3%	4%
COc1ccc(C2CC(=O)c3cc(-c4nc(-c5cccc([N+](=O)[O-])c5)cs4)c(=O)n(-c4cccc(C)c4)c3C2)cc1 (stereo not drawn)	-17%	.	-2.9%	?	3%[46.1 µM]	0%[46.1 µM]	.	.

This is a random part of the collection; 4.6% or so of the library scored in one or more.
